KCNQ2 block: KCNQ2 channel blockers in CHO-K1 cells – cell-based, FluxOR thallium flux, B-score, primary screen (AID 2156); O88943; 20 min; active compounds read low; only compounds with negative scores are shown here; some inactives read as strong as hits; B-score at 10 µM; 1.1% of 310,000 active;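 active = fluorescence ratio B-score at most minus 3 library SDs, with starting brightness B-score within 2 library SDs, cut at about -5.5 in these data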
Target sequence (O88943 whole entry, looked up): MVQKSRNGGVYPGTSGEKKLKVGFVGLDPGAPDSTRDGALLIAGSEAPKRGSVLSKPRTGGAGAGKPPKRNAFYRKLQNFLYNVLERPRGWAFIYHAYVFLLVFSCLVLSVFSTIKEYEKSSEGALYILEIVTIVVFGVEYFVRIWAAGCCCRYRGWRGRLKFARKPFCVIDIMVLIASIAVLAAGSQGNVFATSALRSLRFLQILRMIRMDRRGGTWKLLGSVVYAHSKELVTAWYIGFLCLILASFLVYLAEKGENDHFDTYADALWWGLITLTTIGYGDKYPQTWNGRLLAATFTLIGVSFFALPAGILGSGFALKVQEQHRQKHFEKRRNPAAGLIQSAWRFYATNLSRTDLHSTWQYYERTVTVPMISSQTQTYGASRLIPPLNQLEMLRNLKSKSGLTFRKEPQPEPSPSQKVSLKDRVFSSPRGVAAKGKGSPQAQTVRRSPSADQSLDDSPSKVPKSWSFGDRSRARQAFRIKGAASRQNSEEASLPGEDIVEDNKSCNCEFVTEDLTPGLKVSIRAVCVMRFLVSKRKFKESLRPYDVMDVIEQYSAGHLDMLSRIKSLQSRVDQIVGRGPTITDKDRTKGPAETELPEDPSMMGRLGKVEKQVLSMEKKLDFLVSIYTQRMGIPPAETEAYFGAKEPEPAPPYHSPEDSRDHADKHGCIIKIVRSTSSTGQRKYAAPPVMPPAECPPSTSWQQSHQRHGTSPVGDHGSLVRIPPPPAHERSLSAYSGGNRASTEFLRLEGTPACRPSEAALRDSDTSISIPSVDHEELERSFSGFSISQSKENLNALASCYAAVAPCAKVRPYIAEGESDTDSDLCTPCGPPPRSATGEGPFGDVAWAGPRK
KCNQ2 block baseline: second read-out of KCNQ2 block, no call of its own (marks repeat the call); B-score; measured here: initial fluorescence intensity artifact check;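 brightness before thallium and not channel activity; 0 = typical well and far values either way flag optical interference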
* hit, by the source's call; i = inactive.

KCNQ2 block baseline	KCNQ2 block	SMILES
-0.48	i	COc1cccc(CNC(=O)C(C)n2ccc3cc(S(=O)(=O)N4CCCCCC4)ccc32)c1 (configuration not stated)
-0.57	i	CSc1ccc(C(=O)C2CCCN(C(=O)c3nn(C)c(=O)c4ccccc34)C2)cc1 (configuration not stated)
-1.02	i	Cc1ccc(N2C(=O)N(CC(=O)N(C)Cc3ccccc3)C(=O)C2C)cc1 (configuration not stated)
-1.52	i	Cc1[nH]c(C(=O)O)c(C#N)c1C(=O)c1ccccc1
0.05	i	CCOc1ccc(/C(O)=C2/C(=O)C(=O)N(c3ncccn3)C2c2ccc(C)cc2)cc1 (configuration not stated)
-0.58	i	Cc1cc(C)c2cc(C(=O)Nc3ccc(C)c(F)c3)[nH]c2c1
0.75	i	COc1ccc(-c2cc(C(=O)NCCCN3CCOCC3)c3ccccc3n2)cc1OC
-0.8	i	COC(=O)Cc1c(C)c2ccc(OC(=O)c3ccccc3)cc2oc1=O
1.17	i	Cc1cnc(NC(=O)[C@H](C)N2C(=O)C3CCCCC3C2=O)s1 (some centres not stated)
2.02	i	CCOC(=O)/C=C1\NC2(CCCCC2)Cc2cc(OC)c(OC)cc21
-0.72	i	CN=C1S/C(=C\c2c(OC)cc(OC)cc2OC)C(=O)N1C
-0.08	i	CC(=O)Nc1ccc(S(=O)(=O)N(C)CC(=O)N/N=C/c2cccs2)cc1
-0.91	i	CN(C)S(=O)(=O)c1cccc(NC(=O)CNC2CCCCC2)c1
-0.63	i	COc1ccc(NC(=O)CCSc2ccc(F)cc2)cc1
-0.72	i	CCN(c1ccccc1)S(=O)(=O)c1ccc(OC)c(NC(=O)CNC)c1
0.21	i	Cc1c(NC(=O)CSc2nnnn2Cc2ccccc2)c(=O)n(-c2ccccc2)n1C
-0.1	i	CC(C)(C)C(=O)Nc1cc2c3c(c1)CC(=O)N3CCC2
0.68	i	N/C(CSc1ccccn1)=N\OCc1c(Cl)cccc1Cl
0.8	i	Cc1ccccc1Nc1cc(C)c2c(O)cccc2n1
-0.04	i	CCOc1ccc(-n2nc3ccc(N)cc3n2)cc1
0.1	i	Cc1ccc(S(=O)(=O)N(CC(=O)NCc2cccnc2)C2CCCCC2)cc1
-2.15	i	CC(=O)c1c(-c2ccccc2)c2ccccc2[nH]c1=O
0.79	i	CCOC(=O)/C=C/C(=O)N1CCc2ccccc21
-1.1	i	O=c1oc2cccnc2n1CCS(=O)(=O)c1ccc(F)cc1

By substructure: the entries above containing sulfur (12)
KCNQ2 block baseline	KCNQ2 block	SMILES
-0.48	i	COc1cccc(CNC(=O)C(C)n2ccc3cc(S(=O)(=O)N4CCCCCC4)ccc32)c1 (configuration not stated)
-0.57	i	CSc1ccc(C(=O)C2CCCN(C(=O)c3nn(C)c(=O)c4ccccc34)C2)cc1 (configuration not stated)
1.17	i	Cc1cnc(NC(=O)[C@H](C)N2C(=O)C3CCCCC3C2=O)s1 (some centres not stated)
-0.72	i	CN=C1S/C(=C\c2c(OC)cc(OC)cc2OC)C(=O)N1C
-0.08	i	CC(=O)Nc1ccc(S(=O)(=O)N(C)CC(=O)N/N=C/c2cccs2)cc1
-0.91	i	CN(C)S(=O)(=O)c1cccc(NC(=O)CNC2CCCCC2)c1
-0.63	i	COc1ccc(NC(=O)CCSc2ccc(F)cc2)cc1
-0.72	i	CCN(c1ccccc1)S(=O)(=O)c1ccc(OC)c(NC(=O)CNC)c1
0.21	i	Cc1c(NC(=O)CSc2nnnn2Cc2ccccc2)c(=O)n(-c2ccccc2)n1C
0.68	i	N/C(CSc1ccccn1)=N\OCc1c(Cl)cccc1Cl
0.1	i	Cc1ccc(S(=O)(=O)N(CC(=O)NCc2cccnc2)C2CCCCC2)cc1
-1.1	i	O=c1oc2cccnc2n1CCS(=O)(=O)c1ccc(F)cc1

Remaining list, next part:
KCNQ2 block baseline	KCNQ2 block	SMILES
0.56	i	CC(C)(C)NC(=O)Cn1cnc2cc([N+](=O)[O-])ccc2c1=O
-0.83	i	Cc1ccc(S(=O)(=O)N2CCC3(CC2)OCCO3)s1
1.18	i	CC(=O)Nc1ccc(NC(=O)C(C)OC(=O)CC2CCCC2)cc1 (configuration not stated)
0.11	i	Cc1cc(NC(=S)N(CCN2CCOCC2)Cc2ccccc2F)ccc1Cl
1.32	i	Cc1cccc(C)c1NC(=S)NC(=O)c1ccccc1F
-1.75	i	Cc1cc(C(=O)OCC(=O)Nc2cccc(S(=O)(=O)N(C)C)c2)c2ccccc2n1
-0.14	i	O=C(c1cccc(OC2CCN(C3CCCC3)CC2)c1)N1CCCCCCC1
0.01	i	CCC(C)(C)NC(=O)/C=C/c1ccccc1[N+](=O)[O-]
1.18	i	COc1ccc(C(=O)NNC(=O)OC(C)(C)C)cc1
-0.59*	-8.26*	CC(C)(c1ccccc1)c1ccc(OCC(O)CNC2CCN(Cc3ccccc3)CC2)cc1 (configuration not stated)
0.53	i	O=C(NCCCn1ccnc1)C(=O)NC1CCCCC1
0.51	i	CCN(CC)S(=O)(=O)c1cc(C)ccc1NC(=S)Nc1cccnc1
0.78	i	O=C(NC1CCN(C(=O)Nc2ccccc2)CC1)C1CCCCC1
0.01	i	O=C(Cn1cncn1)c1ccccc1
1.45	i	COc1ccc(N(C)S(=O)(=O)c2ccc3c(c2)NC(=O)CO3)c(OC)c1
-0.95	i	O=C(NCc1ccc[n+](CCCCS(=O)(=O)[O-])c1)c1ccc(OC(F)F)cc1
3.6	i	Cc1cccc(N(C(=O)Nc2ccc(Cl)cc2)C2=NCC(C)S2)n1 (configuration not stated)
0.68	i	Cc1cccc(CC(=O)N2CCC(N3CCC(C(=O)N4CCOCC4)CC3)CC2)c1
-0.33	i	COc1ccc(-n2c(SCC(=O)Nc3nccs3)nnc2-c2ccccc2)cc1
-1.17	i	O=c1cc(-c2ccccc2[N+](=O)[O-])oc2ccccc12
-0.16	i	CCCCn1c(N)c(N(CC(C)C)C(=O)c2ccc(C)c(S(=O)(=O)N3CCCCC3)c2)c(=O)[nH]c1=O
2.1	i	COc1ccc(NC(=O)CN(C)C(=O)CCCc2nc3ccccc3c(=O)[nH]2)cc1
-2.12	i	CCOc1ccccc1NC(=O)Nc1ccc(OC)nc1
-0.19	i	CC(=O)c1ccccc1Oc1ncnc(N)c1[N+](=O)[O-]
-0.32	i	CC1CCc2c(nc3ncnn3c2NCCN(C)C)C1 (configuration not stated)
3.73	i	O=C(Nc1c(-c2ccccc2)nc2c(Br)cc(Br)cn12)c1ccco1
0.81	i	CCOC(=O)Nc1ccc2c(c1)nc(CN1CCCCC1)n2C
-1.22*	-5.73*	CC(C)CCn1nnnc1CN1CCN(C(c2ccccc2)c2ccccc2)CC1
-0.83	i	Nc1cccc2c1C(=O)N(Cc1cccc(Cl)c1)C2=O
-0.78	i	CC1CCc2c(cnc3ncnn23)C1 (configuration not stated)
-1.98	i	Cc1cc(S(=O)(=O)Cc2noc(-c3c(C)noc3C)n2)c(C)cc1Cl
-0.85	i	O=S(=O)(Nc1cccc(-c2ccc(N3CCCCCC3)nn2)c1)c1ccc(F)cc1
1.26	i	O=C1c2ccsc2SCCN1Cc1ccccc1Cl
-0.16	i	CCN(CC)CC(=O)Nc1c(Br)ccc2c1OCO2
-0.11	i	Cc1ccc(C)c(NC(=S)N2C3CCCC2CC(NC(=O)C2CC2)C3)c1 (configuration not stated)
0.18	i	Cc1ccc(/C=C/c2nnc(-c3ccc(C)cc3)o2)cc1
-0.38	i	COC(=O)C(NC(=O)CN1C(=O)c2ccccc2C1=O)c1ccc(O)c(OC)c1 (configuration not stated)
1.06	i	CS(=O)(=O)N1CCN(c2nc3ccc(Cl)cc3s2)CC1
-0.09	i	Cc1cc(C(=O)N2CCN(c3ccccn3)CC2)c(C)o1
-0.99	i	COCC(=O)Nc1cc(OC)cc(OC)c1
3.6	i	CC(=O)Nc1cccc(-c2cnc3ccccc3n2)c1
-0.21	i	Cc1c(NC(=O)C2(c3ccc(Cl)cc3)CCCC2)c(=O)n(-c2ccccc2)n1C
-1.66	i	CN(Cc1ccccc1)c1nc2c(c(=O)[nH]c(=O)n2C)n1CCSc1nc2ccccc2[nH]1
-2.01	i	CCc1ccc2nc(N(CCCN(C)C)C(=O)c3ccc(C(=O)c4ccccc4)cc3)sc2c1
-0.69	i	O=Cc1ccc(-c2cccc(C(=O)O)c2)o1
-0.22	i	O=C(CN(Cc1ccc(F)cc1)C(=O)CCC(=O)Nc1nccs1)NCc1ccc(F)cc1
1.26	i	Cc1cccc2nc(CSc3nc4ccc([N+](=O)[O-])cc4[nH]3)c(Br)n12
0.95	i	Fc1ccc(-n2nnc(-c3ncc[nH]3)n2)cc1

Random excerpt: 2 entries already listed.
KCNQ2 block baseline	KCNQ2 block	SMILES
-0.69	i	O=Cc1ccc(-c2cccc(C(=O)O)c2)o1
-2.01	i	CCc1ccc2nc(N(CCCN(C)C)C(=O)c3ccc(C(=O)c4ccccc4)cc3)sc2c1

The list continues:
KCNQ2 block baseline	KCNQ2 block	SMILES
2.65	i	Nc1c(C(=O)c2cccs2)sc2nsc(SCCN3CCCCC3)c12
-0.35	i	Cc1ncc(CN2CCN(CCc3ccccc3)C(CCO)C2)s1 (configuration not stated)
-1.92	i	O=C1CCCN1CCC12CC3CC(CC(C3)C1)C2
0.56	i	Cc1cc(NC(=O)c2ccccc2F)n(C(C)(C)C)n1
0.09	i	O=C(NNc1cccc(Cl)n1)C1CC1
0.24	i	CSc1nc2ccccc2cc1/C=C(\C#N)c1cccc(C)c1
0.93	i	O=C(CC(Cc1ccccc1)C(=O)O)Nc1ccc(F)cc1 (configuration not stated)
0.12	i	O=C(N/N=C/c1ccc2c(c1)OCCO2)c1ccncc1
-0.56	i	N#Cc1nc(COc2cccc(Cl)c2)oc1N1CCCC1
0.25	i	CCCC(=O)Nc1c2c(nn1-c1ccc(OC)cc1)CS(=O)(=O)C2
-3.07	i	O=C1C(Cl)=C(NCCN2CCOCC2)C(=O)c2ccccc21
-0.07	i	COc1cccc(C(=O)C2CCCN(Cc3cccc(OCCO)c3)C2)c1 (configuration not stated)
0.85	i	CCOC(=O)c1cc2sc(C)cc2n1CC(=O)NCc1ccc(F)cc1
-0.98	i	O=C(OCc1nc2ccsc2c(=O)[nH]1)c1ccccc1
-0.15	i	CN(C)CCNc1ncnc2oc(-c3ccccc3)c(-c3ccccc3)c12
-1.8	i	COc1ccc(-c2noc(CCc3ccccc3)n2)cc1
-0.03	i	Cc1c(Cl)cccc1Nc1nc(N)nc(CN2CCCCCC2)n1
-0.53	i	C=Cn1cc[n+](CC(=O)c2ccc(-c3ccccc3)cc2)c1
19.7	i	N#CC(C#N)=C1C=C2C=C(N3CCOCC3)CCC2CC1 (configuration not stated)
0.73	i	O=C(CCNS(=O)(=O)c1cccc2nsnc12)NCCc1ccccc1
-0.56	i	COc1ccc(C=O)cc1OS(=O)(=O)c1ccc(NC(C)=O)cc1
0.22	i	O=C(Cc1nnc(NC(=O)c2ccccc2)s1)N/N=C\c1ccc(O)c(O)c1
0.27	i	COC(=O)C1=NNC2(c3ccc(C)cc3)C(=O)N(c3cccc(C)c3C)C(=O)C12 (configuration not stated)
1.25	i	Cc1cc2nnc(SCC(=O)Nc3cccc(S(=O)(=O)N4CCOCC4)c3)n2c2ccccc12
1.27	i	COc1cccc(N=Cc2nc(-c3ccccc3)oc2OC(C)=O)c1
-0.98	i	CCNC(=O)CSc1nnc(-c2ccccc2Br)n1-c1cccc(C(F)(F)F)c1
-0.56	i	Cc1cc2c(cc1C)C(c1ccccc1Br)CC(=O)N2 (configuration not stated)
0.57	i	O=C1C(=O)N(c2ccccc2)C(c2ccccc2[N+](=O)[O-])/C1=C(\O)c1ccccc1 (configuration not stated)
-0.34	i	COc1ccc(CNS(=O)(=O)c2c(C(=O)N3CCCCCC3)c(C)n(C)c2C)cc1
2.09	i	CN(C)S(=O)(=O)n1cc(/C=C(\NC(=O)c2ccccc2)C(=O)NCCN2CCOCC2)c2ccccc21
-1.94	i	CCn1c(=S)sc2c(=O)n(CC(=O)Nc3cccc(Cl)c3)c(C)nc21
-0.57	i	CC1=NN(c2ccc(C)cc2)C(=O)/C1=C\C=C\c1ccccc1
-0.08	i	COc1ccc(OC)c(S(=O)(=O)NCC(c2ccc(F)cc2)N2CCN(C)CC2)c1 (configuration not stated)
0.12	i	CCN(CC(=O)Nc1cc(Cl)ccc1C)C(=O)c1ccc(=O)n(Cc2ccccc2)n1
0.16	i	CC(C)c1csc(CN2CCC(n3nccc3NC(=O)Cc3ccccc3)CC2)n1
0.43	i	O=C(Cn1cc(C(=O)C2CC2)c2ccccc21)Nc1ccc(F)cc1
-1.6	i	Nc1cc(=O)[nH]c(SCC(=O)Nc2ccccc2Sc2ccccc2)n1
1.21	i	O=C(c1cccs1)N1N=C(c2ccccc2)CC1c1ccccc1O (configuration not stated)
0.05	i	NC(=O)c1c(C(F)(F)F)cc(-c2ccccc2)nc1NCCO
1.44	i	CNc1nccc(-c2ccc(F)cc2)c1C#N
-0.81	i	CCNC(=O)Nc1ccc(S(=O)(=O)Nc2cnc(C)nc2C)cc1
-1.87	i	c1cnc2ccc(C(c3nnnn3C3CCCC3)N3CCN(c4nc5ccccc5s4)CC3)cc2c1 (configuration not stated)
-0.29	i	O=C1N=c2ccccc2=C1c1sc(NS(=O)(=O)Cc2ccccc2)nc1O
2.25	i	OC12CCCCC1C(c1ccc3c(c1)OCO3)N(Cc1cccc(F)c1)CC2 (configuration not stated)
-0.77	i	Cc1ccc(S(=O)(=O)CCSc2nc(C)cc(C(F)(F)F)c2C#N)cc1
1.33	i	O=c1[nH]c(COc2ccccc2)nc2ccccc12
0.48	i	COCCN1Cc2cccc(C(=O)NCc3cccnc3)c2C1=O
1.48	i	CN1CCN(C(=S)Nc2ccc(Cl)c(Cl)c2)CC1
0.99	i	C=CCOc1c(CNn2nnnc2N)cccc1OC
1.12	i	COc1ccccc1N1CCN(S(=O)(=O)c2ccc3c4c(cccc24)C(=O)N3C)CC1
-1.64	i	CCCc1[nH]nc2c1C(c1ccc(OC(=O)c3ccco3)cc1)C(C#N)=C(N)O2 (configuration not stated)
0.98	i	Cc1cccc(C(=O)Nc2sc(-c3ccccc3)cc2C(=O)O)c1

Assay outcomes (PubChem)

A portion of the library, so the mix of outcomes need not match the whole.
